Screening results (PubChem BioAssay)
KCNQ2 inh = KCNQ2 channel blockers in CHO-K1 cells – cell-based, FluxOR thallium flux, B-score, primary screen (AID 2156) | B-score at 10 µM | O88943 | 20 min; hits give low values; only compounds with negative scores are shown here; some inactives read as strong as hits | actives 1.1% (n = 310,000);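 active means fluorescence ratio B-score at most minus 3 library SDs, with starting brightness B-score within 2 library SDs, cut at about -5.5 in these data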
Target sequence (O88943 whole entry, looked up): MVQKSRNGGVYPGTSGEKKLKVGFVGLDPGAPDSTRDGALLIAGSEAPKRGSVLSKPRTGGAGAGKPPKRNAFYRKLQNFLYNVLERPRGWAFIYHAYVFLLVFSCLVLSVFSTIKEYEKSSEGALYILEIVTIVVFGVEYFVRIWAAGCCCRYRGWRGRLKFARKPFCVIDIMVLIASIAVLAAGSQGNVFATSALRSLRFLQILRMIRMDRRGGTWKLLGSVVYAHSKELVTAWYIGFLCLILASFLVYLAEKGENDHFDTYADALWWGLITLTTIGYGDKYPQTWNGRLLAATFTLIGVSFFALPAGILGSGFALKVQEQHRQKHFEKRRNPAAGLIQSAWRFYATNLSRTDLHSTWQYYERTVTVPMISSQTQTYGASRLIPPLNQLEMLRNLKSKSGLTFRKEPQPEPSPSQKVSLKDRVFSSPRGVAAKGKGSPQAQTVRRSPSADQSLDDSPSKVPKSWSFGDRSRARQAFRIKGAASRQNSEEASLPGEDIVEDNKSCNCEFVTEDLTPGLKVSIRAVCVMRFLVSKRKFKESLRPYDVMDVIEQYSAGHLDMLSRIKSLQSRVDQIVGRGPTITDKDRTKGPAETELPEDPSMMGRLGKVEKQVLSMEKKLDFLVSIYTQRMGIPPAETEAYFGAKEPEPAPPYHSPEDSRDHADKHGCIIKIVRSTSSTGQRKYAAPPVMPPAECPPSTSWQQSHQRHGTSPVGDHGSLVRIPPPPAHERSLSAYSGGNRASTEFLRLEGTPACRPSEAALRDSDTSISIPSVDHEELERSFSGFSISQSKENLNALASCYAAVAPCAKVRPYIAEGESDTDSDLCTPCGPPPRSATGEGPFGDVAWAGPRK
KCNQ2 inh baseline = further read-out of KCNQ2 inh, marked with its call; B-score; measured here: initial fluorescence intensity artifact check;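 brightness before thallium and not channel activity; 0 = typical well and far values either way flag optical interference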
Numbers without * were called inactive; i = inactive.

| Molecule | KCNQ2 inh | KCNQ2 inh baseline |
| --- | --- | --- |
| C=CCNC(=O)c1ccc(NC(=O)CC2SC(N3CCCC3)=NC2=O)cc1 (configuration not stated) | i | -0.75 |
| COc1ccc(OCc2nnc(SCC(=O)NCc3ccco3)o2)cc1 | i | -0.34 |
| CC1(C)Cc2c(cnn2-c2cccc(F)c2)C(NC(=O)CCN2CCCC2=O)C1 (configuration not stated) | i | -1.07 |
| Cc1cccc(C2C3=C(Nc4[nH]n(-c5ccccc5)c(=O)c42)c2ccccc2C3=O)c1 (configuration not stated) | i | -2.1 |
| CC(C)(C)OC(=O)N[C@@H](Cc1ccccc1)c1nnc(S(=O)(=O)Cc2cccc(F)c2)o1 | i | -1.3 |
| NC(=O)c1ccsc1NC(=O)COC(=O)Cc1n[nH]c(=O)c2ccccc12 | i | 0.67 |
| Oc1ccc(Br)cc1-c1ccnn1-c1ccccc1 | i | 0.88 |
| COc1ccc(NC(C(=O)Nc2cccc(C(C)=O)c2)c2ccccc2)cc1 (configuration not stated) | i | -1.14 |
| CCCCN(C)C(=O)CSc1nc(NCc2ccc(OC)cc2)c2ccccc2n1 | i | -0.84 |
| CCN(CC)CCNC(=O)c1cn(CC)c2ccc(S(=O)(=O)N(C)C3CCCCC3)cc2c1=O | i | -1.28 |
| CCOc1cccc(-c2nn3c(-c4ccccn4)nnc3s2)c1 | i | -0.32 |
| CCOc1cc(C=O)ccc1OCC(N)=O | i | -0.91 |
| CC(=O)N1CCN(C(=O)c2ccc3c(c2)S(=O)(=O)c2ccccc2C3=O)CC1 | i | -0.9 |
| O=C(Cc1ccc(F)cc1)N/N=C/c1ccc2c(c1)OCO2 | i | -0.24 |
| COc1cccc(C2=NOC(C(=O)NCc3ccccc3)C2)c1 (configuration not stated) | i | -1.61 |

| Molecule | KCNQ2 inh | KCNQ2 inh baseline |
| --- | --- | --- |
| O=C1CCCC(=O)N1c1ccc(N2CCN(c3ccccc3)CC2)c([N+](=O)[O-])c1 | i | -0.62 |
| CCS(=O)(=O)c1ccc(C(=O)NC2CC2)c(Cl)c1Cl | i | 0.3 |
| CCCCCOC(=O)C1=C(C)NC(=O)NC1c1ccc(N(C)C)cc1 (configuration not stated) | i | 0.08 |
| CC1=C(C(N)=O)C(c2ccccc2F)n2nc(CCCO)nc2N1 (configuration not stated) | i | 1.77 |
| CC(=O)C(=Cc1ccc(C(=O)O)cc1)C(C)=O | i | -0.18 |
| COc1ccc(OC)c2[nH]c(=O)c(CCNC(=O)c3ccc4c(c3)OCO4)cc12 | i | -0.43 |
| Cc1cccc(NC(=O)C2CCN(S(=O)(=O)c3cccs3)CC2)n1 | i | -0.97 |
| Cn1c(SCc2ccc(F)cc2)nnc1-c1cccs1 | i | 0.71 |
| CC(C)(C)CC(=O)Nc1cc2c3c(c1)CC(=O)N3CCC2 | i | 0.43 |
| COCc1cc(=O)[nH]c2cc(NC(=O)C3CC3)c(C)cc12 | i | -1.84 |
| Cn1c(N)c(S(=O)(=O)N2CCN(c3ccccc3Cl)CC2)c(=O)n(C)c1=O | i | 1.73 |
| COc1cc(/C=N/NC(=O)COc2ccc(C)cc2)ccc1OC(=O)c1cccs1 | i | -0.41 |
| COc1cccc(N(C(=O)Cn2nnc3ccccc32)C(C(=O)NCc2ccco2)c2cccnc2)c1 (configuration not stated) | i | 0.4 |
| CCN=C1SC(C(=O)Nc2ccc(Cl)c(Cl)c2)CC(=O)N1CC (configuration not stated) | i | 0.68 |
| COc1ccc(C(=O)Nc2ccc(NC(=O)c3cnccn3)cn2)cc1 | i | -1.19 |

| Molecule | KCNQ2 inh | KCNQ2 inh baseline |
| --- | --- | --- |
| Cc1ccc(/C=C(\C#N)C(=O)N2CCCC2)c(C)c1 | i | -1.56 |
| O=C(NCCO)C(=O)c1c(-c2ccc(Cl)cc2)cc2ccccn12 | i | -0.74 |
| Cc1c(N=NC2=C(O)CCCC2=O)c(=O)n(-c2ccccc2)n1C | i | 0.01 |
| c1ccc(CN2CCCC3(CCCN(Cc4nc(COc5ccccc5)no4)C3)C2)cc1 (configuration not stated) | i | 0.75 |
| O=C(CCC(=O)N1CCN(S(=O)(=O)c2ccc3ccccc3c2)CC1)Nc1cc(Cl)cc(Cl)c1 | i | -1.32 |
| Cc1coc(C)c1C(=O)CC1(O)C(=O)N(CCc2ccccc2)c2ccccc21 (configuration not stated) | i | -0.07 |
| CCNc1nc(NC(C)C)nc(NS(=O)(=O)c2ccc(Cl)cc2)n1 | i | -1.32 |
| COc1ccc(CCNC(=O)c2cc(C(=O)c3cc(Cl)ccc3O)cn(CCc3ccc(OC)cc3)c2=O)cc1 | i | 0.51 |
| O=S(=O)(c1ccc(Br)cc1)N1CCCc2ccccc21 | i | -0.02 |
| Cc1ccc(NC(=O)C2CCC(CNC(=O)[C@@H]3Cc4ccccc4CN3)CC2)c(C)c1 (some centres not stated) | i | 1.93 |
| c1ccc(CNc2nc(N3CCN(Cc4ccccc4)CC3)nc3ccccc23)cc1 | i | 2.66 |
| O=C(Cn1nnc(N2CCCC2)n1)N/N=C/c1ccc(Cl)cc1 | i | 0.51 |
| C/C(=N\Nc1ccc(C)c(Cl)c1)c1cccnc1 | i | -0.7 |
| c1ccc2c(c1)nnn2Cc1nnc2sc(-c3ccc4c(c3)OCCO4)nn12 | i | 0.59 |
| Cc1cc(OCCCn2ccnc2)ccc1[N+](=O)[O-] | i | 0.29 |

| Molecule | KCNQ2 inh | KCNQ2 inh baseline |
| --- | --- | --- |
| Cc1cc(C(=O)NC(C)C2CCCO2)no1 (configuration not stated) | i | 2.4 |
| O=C(N/N=C(\c1ccccc1)c1cccnc1)c1cccc(F)c1 | i | 0.93 |
| CCc1ccc(NC(=O)CSc2nnc(C)c(=O)n2N)cc1 | i | -0.95 |
| O=C(NC1=NCCS1)c1cc(-c2cccs2)nc2ccccc12 | i | 0.01 |
| CC1(C)C(c2cccs2)=[N+]([O-])C2(CCCCC/C2=N\NC(N)=O)N1O (configuration not stated) | i | 0.7 |
| Cc1cnc(C(=O)OCC(=O)NCCc2ccccc2)cn1 | i | -0.19 |
| CCOC(=O)c1cc(C#N)c(SCC(N)=O)[nH]c1=O | i | -0.81 |
| Cc1ccnc(SCCn2c(N3CCC(C)CC3)nc3c2c(=O)n(C)c(=O)n3C)n1 | i | -0.04 |
| CN(C)c1cccc(C(=O)OCCNC(=O)c2cccc(S(=O)(=O)N3CCOCC3)c2)c1 | i | 0.09 |
| COC(=O)c1ccc(NC(=O)CN2CCN(c3ccccc3C)CC2)cc1 | i | 1.98 |
| COc1cc(C)c(NC(=S)Nc2ccc(Cl)c(Cl)c2)cc1OC | i | 0.02 |
| CC(=O)N/C(=C/c1ccc(OC(F)F)cc1)C(=O)O | i | -0.82 |
| O=C(NNC(=O)c1cc(OCC(F)(F)F)ccc1OCC(F)(F)F)c1ccc(Cl)c(Cl)c1 | i | 1.54 |
| CC(NC(=O)c1sc2ccccc2c1Cl)C1CCCO1 (configuration not stated) | i | -0.14 |
| Cc1ccc(C)c(NC(=O)CN(C)S(=O)(=O)c2ccc(F)cc2)c1 | i | 1.27 |

| Molecule | KCNQ2 inh | KCNQ2 inh baseline |
| --- | --- | --- |
| O=C(COc1cccnc1[N+](=O)[O-])Nc1ccc2c(c1)OC(F)(F)O2 | i | 0.14 |
| Cc1ccc(NC(=O)CN(C)C(=O)CSc2nc3ccccc3o2)cc1 | i | 2.37 |
| CCCn1c(=O)c(C(=O)NCc2cccnc2)c(O)c2ccccc21 | i | 0.06 |
| COc1ccc(C2C(C(=O)c3ccco3)=C(O)C(=O)N2CCN2CCOCC2)c(OC)c1 (configuration not stated) | i | 1.31 |
| C/C(=C\C(=S)Nc1ccccc1)Nc1ccc2ccccc2c1 | -6.29* | -1.95* |
| COC(=O)NNC(=O)COc1cc(C)ccc1C | i | -0.07 |
| O=C(NCc1ccc(Cl)cc1)C1CCC(CNS(=O)(=O)c2ccccc2)CC1 (configuration not stated) | i | 1.05 |
| COc1cccc(NC(=O)n2nc(N)cc2-c2ccc(Cl)cc2)c1 | -5.71* | 0.94* |
| CC1CCC2(CC1)NC(=O)N(Cc1nc(-c3ccccc3)no1)C2=O (configuration not stated) | i | 2.46 |
| Oc1ccc(N=Cc2ccc(O)c(O)c2)cc1 | i | 2.34 |
| COc1ccc(N2CC(C(=O)NCc3ccco3)CC2=O)cc1 (configuration not stated) | i | -1.21 |
| O=C(O)COc1ccc(/C=N/NC(=O)Cc2ccc(Cl)cc2)cc1 | i | 1.1 |
| Cc1ccc(S(=O)(=O)Nc2cccc(C(=O)NC3CCN(Cc4ccccc4)CC3)c2)cc1F | i | 2.28 |
| CCC(C)[C@H](NC(=O)N1CCn2c1nc1ccccc12)C(=O)NCC1CCCO1 (some centres not stated) | i | -0.12 |
| CCC(c1nnnn1Cc1ccccc1)N1CCN(c2ccc(OC)cc2)CC1 (configuration not stated) | i | 1.24 |

| Molecule | KCNQ2 inh | KCNQ2 inh baseline |
| --- | --- | --- |
| CC(C)Nc1nc2cccnc2s1 | i | 1.41 |
| Cc1ccc(S(=O)(=O)N2CCOCC2)cc1NC(=O)CNCc1ccccn1 | i | 0.32 |
| Cc1ccc(C2=NOC(=O)/C2=C\C=C\c2ccccc2)cc1 | i | -2.1 |
| COc1cc(/C=N/NC(=O)CN(Cc2ccccc2)S(=O)(=O)c2ccc3c(c2)OCCO3)ccc1O | i | -0.26 |
| COc1ccc(C(=O)OCC(=O)Nc2ccc(F)c(F)c2)cc1OC | i | 0.16 |
| OC(CNC1CCCCCC1)COc1cccc2ccccc12 (configuration not stated) | i | -0.33 |
| COc1ccc(NC(=O)CCNC(=O)N2CC(=O)Nc3ccccc32)c(OC)c1 | i | 0.62 |
| O=C(O)c1ccc2c(c1Sc1ccccc1)C(=O)c1ccccc1C2=O | i | 1.41 |
| COc1cc(/C=C2\SC(=S)N(NC(=O)c3ccncc3)C2=O)ccc1O | i | 1.34 |
| CC(C)c1nc(SCC(=O)NC2CCCC2)c2c(=O)n(C)c(=O)n(C)c2n1 | i | 1.82 |
| COc1ccccc1N(CC(=O)NC1CCCCC1)C(=O)CNC(=O)c1cccs1 | i | -0.6 |
| O=C(CCN1CCN(Cc2ccccc2)CC1)Nc1cccc(Br)c1 | i | 0.2 |
| O=S(=O)(c1ccc(Br)cc1)N1CCOC12CCCCC2 | i | 1.8 |
| COc1ccc(C2C3=C(CC(C)(C)CC3=O)Nc3c2c(=O)[nH]c(=O)n3Cc2ccccc2)cc1OC (configuration not stated) | i | 0.39 |
| COc1ccc(S(=O)(=O)N(C)c2ccc(C(=O)N3CCN(C)CC3)cc2)cc1 | i | -0.05 |

| Molecule | KCNQ2 inh | KCNQ2 inh baseline |
| --- | --- | --- |
| O=C(COC(=O)CCN1C(=O)/C(=C\C=C\c2ccccc2)SC1=S)Nc1ccc(Br)cc1 | i | -0.46 |
| CC(CCC(=O)O)C1CCC2C3C(O)CC4CC(O)CCC4(C)C3CC(O)C12C (configuration not stated) | i | 1.15 |
| CCOc1ccc(NC(=O)c2ccc(Cl)c(NC(=O)c3ccco3)c2)cc1 | i | 1.16 |
| COc1ccc(NC(=O)/C(=C/c2ccc(OC(C)=O)c(OC)c2)NC(C)=O)cc1 | i | 0.2 |
| S=C1SCN(Cc2ccccc2)CN1Cc1ccccc1 | i | 0.02 |
| CCCn1c(O)c(N=NC(=O)CNC(=O)Cc2ccc(OC)cc2)c2ccccc21 | i | -0.13 |
| O=c1cc(-c2ccco2)nc(SCc2cccc(Cl)c2)[nH]1 | i | -0.24 |
| CCC(C)NC(=O)COCc1cc(-c2ccc3c(c2)OCO3)on1 (configuration not stated) | i | -1.17 |
| COc1ccc(C(=O)NCCNc2ccc([N+](=O)[O-])cc2)cc1OC | i | 2.31 |
| Cc1coc(NC(=O)CSc2nc(-c3ccncc3)cc(C(F)(F)F)c2C#N)n1 | i | -1.24 |
| COc1cc(NC(=O)C23CC4CC(C2)CC(n2nnc(C)n2)(C4)C3)c(OC)cc1Cl | i | -1.84 |
| CC(=O)Oc1ccccc1/C=C/c1ccc2ccccc2[n+]1C | i | -1.37 |
| Cc1ccc(NC(=S)N(C)N)cc1Cl | i | 0.08 |
| COc1ccc(NC(=O)CN(C)C(=O)CNC(=O)C2CCCCC2)cc1 | i | -0.1 |
| CC1(C)C2CC=C(/C=N/NC(=O)c3ccc(O)cc3)C1C2 (configuration not stated) | i | 0.04 |

| Molecule | KCNQ2 inh | KCNQ2 inh baseline |
| --- | --- | --- |
| Cn1nccc1C(=O)N1CCCC(C(=O)c2cccc3ccccc23)C1 (configuration not stated) | i | 0.79 |
| Cc1cc(=O)n2[nH]cc(C(=O)O)c2n1 | i | -1.74 |
| O=C(O)c1ccc(NS(=O)(=O)c2ccc(NC(=O)c3ccccc3Cl)cc2)cc1 | i | 0.32 |
| COC(=O)Cc1c(C)nc2nc(-c3ccco3)[nH]n2c1=O | i | 1.13 |
| COC(C[C@H](O)CC(=O)[C@H](C)OCc1ccccc1)OC | i | -0.04 |
| Cc1ccnc(NC(=O)c2ccc([N+](=O)[O-])o2)c1 | i | 1.91 |
| COc1ccc(CNC(=S)Nc2cc(OC)ccc2OC)cc1 | i | -0.61 |
| COC(=O)c1sc2nc(CN3CCN(c4ccc(OC)cc4)CC3)[nH]c(=O)c2c1C | i | -1.08 |
| COc1cc2nc(NC(=O)c3ccco3)sc(=O)c2cc1OC | i | -0.01 |
| O=C(NNC(=O)c1cc([N+](=O)[O-])ccc1Cl)c1cccnc1 | i | 1.39 |
| COc1ccc(OC)c(C(=O)NC(CC(N)=O)c2ccc(N3CCC(Cc4ccccc4)CC3)c([N+](=O)[O-])c2)c1 (configuration not stated) | i | -0.71 |

An excerpt (hit frequency here may not be typical).
